MT1-MMP act inh: blocks activation of human MT1-MMP. HT1080 RFP-PRO-GFP cells, GFP/RFP ratio fluorescence, overnight; percent of plate control window, DMSO zero. GFP/RFP ratio change, % at 20 µM. AID 651647. 360,000 compounds, 0.061% hits;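 active = GFP/RFP ratio change of at least 30% with cell ATP level not reduced by more than half and red fluorescence within 50% of control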; note: strong numbers were not always called active
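Assay system: HT1080 cells carrying an RFP-PRO-GFP reporter | Dosing: Single dose of 20 µM compound, 1% DMSO final | Incubation: Cells overnight before dosing, compound overnight, 37 °C, 5% CO2 | Evaluation: GFP/RFP fluorescence ratio | Control set: DMSO and RFP-L50D-GFP cell wells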
Yeast UUG start: yeast start codon fidelity modulation | 350,000 compounds, 0.13% hits | activity score, % at 18.7 µM | AID 602363 | S. cerevisiae UUG-firefly luciferase reporter, luminescence/redox ratio;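 active = replicate mean at a twofold rise or more, about +100% in these data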;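 note: firefly luciferase made from a UUG start codon reports start codon fidelity; reporter light over untreated wells divided by growth signal over untreated wells; some hits fall short of that in this replicate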
PABP polyA inh: blocks human PABP binding to poly(A) RNA. P11940. fluorescence polarization. inhibition, % at 35 µM. 290,000 compounds, 1% hits;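 active = 50% or more with normal probe brightness, or confirmed in later tests; about a fifth of its hits are not listed in these tables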;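 note: calls also rest on retests at 20 µM and on dose response follow-up; controls were probe without protein and protein plus probe with vehicle; some compounds called inactive have numbers as strong as hits; many hits fall short of the cut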
Target sequence (P11940 whole entry, looked up): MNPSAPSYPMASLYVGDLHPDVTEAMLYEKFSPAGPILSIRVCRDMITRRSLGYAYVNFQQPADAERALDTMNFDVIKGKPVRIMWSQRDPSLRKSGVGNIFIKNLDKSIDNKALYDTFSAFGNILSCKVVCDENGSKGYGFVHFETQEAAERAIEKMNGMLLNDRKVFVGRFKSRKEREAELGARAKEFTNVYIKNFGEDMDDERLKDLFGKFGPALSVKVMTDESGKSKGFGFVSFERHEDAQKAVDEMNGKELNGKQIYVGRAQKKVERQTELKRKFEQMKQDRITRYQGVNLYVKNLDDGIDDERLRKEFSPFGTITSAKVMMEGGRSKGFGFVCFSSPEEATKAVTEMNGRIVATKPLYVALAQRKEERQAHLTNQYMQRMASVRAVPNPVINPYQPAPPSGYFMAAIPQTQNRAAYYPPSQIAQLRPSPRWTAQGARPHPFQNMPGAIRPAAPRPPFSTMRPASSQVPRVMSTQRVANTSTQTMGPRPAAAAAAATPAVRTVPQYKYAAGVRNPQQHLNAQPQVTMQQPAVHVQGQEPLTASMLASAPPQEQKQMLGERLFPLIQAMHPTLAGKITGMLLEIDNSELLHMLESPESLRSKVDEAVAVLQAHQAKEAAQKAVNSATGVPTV
Env fusion inh: blocks HIV Env-driven cell-cell fusion; HeLa-JRFL Env/CEM21 cell fusion, luciferase; inhibition, % at 12.3 µM; 360,000 compounds, 1.1% hits;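 active = mean replicate inhibition score of at least 50 and every replicate individually at or above 50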;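 note: 0% = plate neutral controls and 100% = maraviroc near 300 nM; one replicate is shown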
eIF4H FP inh: inhibitors of RNA binding by human eIF4H | Q15056 | eIF4H fluorescence polarization binding assay | inhibition, % at 35 µM | 290,000 compounds, 0.94% hits;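 active = 50% or more with normal probe brightness, or confirmed in later tests; about a fifth of its hits are not listed in these tables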;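 note: calls also rest on retests at 20 µM and on dose response follow-up; 0% = protein and probe with vehicle and 100% = probe without protein; strong numbers were not always called active; many hits fall short of the cut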
CSC inhib: cancer stem cell inhibition | cancer stem cell-like cells viability, luminescence | inhibition, % at 7.5 µM | 300,000 compounds, 1.1% hits;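 active = mean at 75% or more and at least half the replicates too; tested in HMLE shEcad cells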;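 note: 0% = median of negative and 100% = median of positive control wells; the first replicate is given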
Rce1 inh: blocks yeast Ras-converting enzyme | Q03530 | calls only | 290,000 compounds, 0.27% hits | AID 2563 | yeast membranes, quenched prenylated peptide cleavage fluorescence;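 active = fall in fluorescence gain of 50% or more versus controls, with final raw signal at or below 3038400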;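 note: plate controls were neutral control wells for no effect and wells lacking membranes for full effect; tested at 10 µM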
MT1-MMP act inh RFP: recorded beside MT1-MMP act inh, whose call it bears; RFP signal change, %; measured here: RFP expression control read;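 0 = vehicle wells; hits needed this value within 50% of zero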
* marks the source's active call; other numbers are inactive results; i = inactive; · = not tested or not shown; & = joins results of further samples; [ ] = remark or other dose. These rows are one share of the data; rates above refer to the full screens.

SMILES	MT1-MMP act inh	MT1-MMP act inh RFP	Yeast UUG start	PABP polyA inh	Env fusion inh	eIF4H FP inh	CSC inhib	Rce1 inh
CCOC(=O)c1c[nH]c2c([N+](=O)[O-])cc(OC)cc2c1=O	-1	0	6	·	-5	·	·	·
COc1ccc(NC(=O)Nc2cccc3c2O[C@H](CN(C)S(=O)(=O)c2cccs2)[C@@H](C)CN([C@H](C)CO)C3=O)cc1	5	0	-1&-5	·	-21[16.7 µM]	·	·	·
CCOC(=O)c1cc(CC)sc1N1C(=O)CC(Sc2ccccc2C(=O)O)C1=O (configuration not stated)	0	1	·	12	-10	4	-13	i
COC(=O)Cc1c(C)c2c(OCc3nn[nH]n3)cc(C)cc2oc1=O	7	1	-19	26	-1	-10	-10	i
COc1ccc(CN2C(=O)C(CC(=O)NCC3CCCCC3)CC(C(=O)N(C)C)=C2C)cc1 (configuration not stated)	0	3	3	·	5	·	·	·
C=Cc1cnc([N+](=O)[O-])n1C	1	-3	-4	·	17	·	·	·
Cc1cn([C@H](C(=O)NCCCCCCCCCCC(=O)N2CCN(C(=O)OC(C)(C)C)CC2)[C@@H](C)O)nn1	2	-9	-21	·	·	·	6	·
FC(F)(F)c1nnc2ccc(NCc3ccccc3)nn12	3	0	·	-5	-1	2	6	i
CC(C)OCCCNC(=O)C(=O)N/N=C/c1ccc(OCc2ccccc2)cc1	·	·	-11	-5	-3	3	0	i
Cc1ccsc1/C=C1/NC(=O)N(Cc2ccc(F)cc2)C1=O	7	3	·	7	-99	-10	0	i
Cc1ccc(NC(=O)CSc2nnc(-c3ccccc3C)o2)cc1C	3	-5	-10	5	-136	0	15	i
CCOc1ccccc1C1C(C(N)=O)=C(C)Nc2nc(-c3cccc(C)c3)nn21 (configuration not stated)	-3	-3	-15	·	-3	·	3	i
COc1ccc(CC(CC(=O)O)C(=O)Nc2ccc(Cl)c(Cl)c2)cc1 (configuration not stated)	3	1	-7	-6	2	4	-2	i
CCCn1c(SCC(=O)N2CCCc3ccccc32)nnc1-c1ccccn1	-2	-3	-13	20	-36	-10	·	i
CC(C)c1ccccc1NS(=O)(=O)c1cccs1	-1	2	-25	9	14	0	1	i
COc1ccc(-c2cccc3c2NC(=O)C3=O)cc1OC	-4	4	-9	·	-44	·	·	·
O=C(Cc1c(Cl)cccc1Cl)N/N=C/c1cccnc1	1	0	3	-14	-1	-1	-7	i
CCCc1cc(NCCN(C)C)n2c(nc3ccccc32)c1C#N	-11	-3	-10	28	-4	11	-10	i
CC(NS(C)(=O)=O)C(c1cccs1)N1CCN(c2ccccc2)CC1 (configuration not stated)	1	1	-14	10	·	-7	-18	i
O=C(c1ccco1)N1CCN(C(c2ccc(Cl)cc2)c2nnnn2Cc2ccccc2)CC1 (configuration not stated)	-3	3	21	2	·	-13	-2	i
Cc1ccc(NC(=O)CSc2ncccc2C(=O)Oc2cccc([N+](=O)[O-])c2)cc1Cl	1	-2	·	-2	-68	-23	8	i
O=C(O)CC(Cc1ccc(Br)cc1)C(=O)Nc1ccccc1 (configuration not stated)	-1	5	0	-2	-1	-17	-9	i
Cc1ccc(Nc2nc3nonc3[nH]c2=O)cc1	2	-1	-16	2	-55	3	4	i
COCCCn1c(=O)c2ccccc2n(Cc2ccc(C)cc2)c1=O	-4	2	-5	-2	2	11	-19	i
Nc1cc2c(cc1C(=O)c1ccccc1F)OCCO2	0	0	-27	-7	15	-5	-4	i
Cc1ccc(OCc2cc(C(=O)N(C)CCc3nc4ccccc4[nH]3)no2)cc1C	-5	-13	-17	10	-2	4	·	i
Cc1ccc2nc(/C(C#N)=C/c3cn[nH]c3-c3ccc(F)cc3)[nH]c2c1	-7	-18	·	-11	·	-2	41	i
O=C(NC1CC1)c1cccc(NC(=O)c2cn3ccccc3n2)c1	15	0	-15	·	·	·	-2	·
COc1ccc(-c2oc3ccc(-c4cc(OC)c(OC)c(OC)c4)cc3c2C#Cc2ccsc2)cc1	-6	-2	-16	-1	-5	-3	52	i
COc1ccc(C(=O)NN2C(=O)C3C4C=CC(O4)C3C2=O)cc1 (configuration not stated)	1	3	-24	3	·	6	3	i
CN1CCc2c(sc3nc(NN)n(-c4ccc(Cl)cc4)c(=O)c23)C1	-12	2	25	1	·	14	-5	i
CCc1nnc2c(NCCc3ccccc3)nc3ccccc3n12	8	3	-9	-1	-7	5	1	i
CC1CCCCC1NC(=O)c1ccc2c(c1)[nH]c(=O)n2C1CCCC1 (configuration not stated)	-3	2	-8	2	·	-3	4	i
CS(=O)(=O)N1CCN(c2ccc([N+](=O)[O-])cc2F)CC1	-1	-3	·	8	2	3	-7	i
O=C(CSc1nnc(CNc2ccccc2)o1)c1ccc2c(c1)OCCO2	9	4	-21	-11	-28	-1	-1	i
CCOC(=O)c1cc(-c2ccc(N)cc2)sc1N	7	0	1	-5	-114	-11	23	i
Cc1ccc(S(=O)(=O)N(Cc2ccc(Cl)cc2)c2ccccc2C(=O)NCc2ccco2)cc1	-7	-13	·	3	69*	0	-16	i
COC(=O)c1cc(Br)ccc1NC(=O)CCNC(=O)c1ccco1	-3	-3	-16	-2	-4	-3	-16	i
COc1ccc(/C=N/n2c(-c3n[nH]c4c3CCC4)n[nH]c2=S)cc1	-1	0	·	5	-19	-8	-3	i
O=C(NC(c1ccccc1)c1ccc2ccccc2n1)C1CCN(Cc2cccc(C(F)(F)F)c2)CC1 (configuration not stated)	-3	-10	-19	·	-7	·	·	·
Cc1c(NC(=O)CSc2nc3ccccc3s2)c(=O)n(-c2ccccc2)n1C	4	-1	·	-5	·	8	2	i
CCOc1ccc2ccccc2c1C1NC(=O)NC(C)=C1C(=O)OCCOC (configuration not stated)	-1	0	-16	-7	1	-8	-6	i
CCC(=O)Nc1nc2c(OC)ccc(OC)c2s1	0	4	-15	1	-48	0	-10	i
Cc1cccc(C(=O)OC(C)CN2CCN(C)CC2)c1 (configuration not stated)	1	3	-7	0	9	1	1	i
CC1=NCCN1S(=O)(=O)c1ccc(Br)c(C)c1	5	6	4	-1	37	11	-5	i
O=S1(=O)CCOC[C@H](CC2CCCCC2)N1Cc1ccccc1	8	-3	4	-7	9	2	4	i
CCOC(=O)C1(Cc2cccc(F)c2)CCN(C(=O)C2CCC2)CC1	0	-1	·	-3	3	8	-18	i
Cc1ccc(C(=O)NCc2ccco2)cc1S(=O)(=O)N1CCOCC1	2	8	-14	8	-59	6	-3	·
CCN1CCN(c2nc3c(c(=O)n(C)c(=O)n3C)n2CCSc2nccc(C)n2)CC1	12	1	-19	4	2	5	-15	i
Cc1cc(Nc2ccccc2)nc(N2CCN(C(=O)c3ccc4c(c3)OCO4)CC2)n1	0	-4	-2	·	2	·	8	i
COC(=O)c1c(NC(=O)c2ccc(S(=O)(=O)N3CC(C)OC(C)C3)cc2)sc2c1CCN(C)C2 (configuration not stated)	-4	-3	-15	·	-4	·	·	·
O=C(O)CCn1[nH]c(=O)ccc1=O	1	5	-11	-6	·	0	6	i
N#Cc1ccncc1S(=O)c1ccc(Cl)cc1 (configuration not stated)	0	1	-17	-12	1	-8	3	i
CCCN1CCN(C(=O)CCc2nnc3ccc(N4CCN(c5cccc(OC)c5)CC4)nn23)CC1	-4	5	-5	-3	7	14	-24	i
COCCNC(=O)C(c1ccc(O)cc1)N(Cc1cccs1)C(=O)CCC(=O)Nc1ccccn1 (configuration not stated)	-2	1	-14	-2	12	-3	-6	i
Cc1cc(=O)[nH]c(N/N=C/c2c(F)c(F)c(F)c(F)c2F)n1	2	0	-19	-9	6	-8	0	i
CN1CCN(S(=O)(=O)c2cccc(C(=O)N(C)C(c3ccccc3)c3ccccc3)c2)CC1	3	-4	·	·	5	·	-15	i
O=C(Nc1ccc(Oc2ccccc2)nc1)C1CCCCN1Cc1ccc(O)cc1 (configuration not stated)	-16	-2	-11	-2	·	-10	5	·
CCC(C)(C)NC(=O)C(c1ccc(C)cc1)N(CCN1CCOCC1)C(=O)CNC(=O)c1cccs1 (configuration not stated)	3	6	-13	0	11	1	-14	i
N#Cc1ccc(N[C@@H]2CCN3C(=O)c4ccccc4[C@@H]3C[C@H]2O)cc1	2	5	12	·	-31	·	·	·

A stretch of the results above:
SMILES	MT1-MMP act inh	MT1-MMP act inh RFP	Yeast UUG start	PABP polyA inh	Env fusion inh	eIF4H FP inh	CSC inhib	Rce1 inh
Cc1c(NC(=O)CSc2nc3ccccc3s2)c(=O)n(-c2ccccc2)n1C	4	-1	·	-5	·	8	2	i
CCOc1ccc2ccccc2c1C1NC(=O)NC(C)=C1C(=O)OCCOC (configuration not stated)	-1	0	-16	-7	1	-8	-6	i
CCC(=O)Nc1nc2c(OC)ccc(OC)c2s1	0	4	-15	1	-48	0	-10	i

The list continues:
SMILES	MT1-MMP act inh	MT1-MMP act inh RFP	Yeast UUG start	PABP polyA inh	Env fusion inh	eIF4H FP inh	CSC inhib	Rce1 inh
CC12CCC(C(=O)Nc3cc(F)ccc3F)(CC1=O)C2(C)C (configuration not stated)	-1	1	-17	4	-17	-4	-7	i
C[C@@H]1CN([C@@H](C)CO)C(=O)CCCn2nncc2CO[C@@H]1CN(C)S(=O)(=O)c1ccc(-n2cccn2)cc1	2	2	-11&7	·	9	·	·	·
COc1ccc(CCNC(=O)COC(=O)c2ccc(N3CCCC3=O)cc2)cc1	7	5	·	0	-5	2	·	i
Nc1nc(SCc2ccc3c(c2)OCO3)n[nH]1	-4	-1	-7	0	·	-9	8	·
C=CCNC(=S)N/N=C/c1ccc(-c2ccc(Br)cc2)o1	0	-2	·	-2	8	8	17	i
CN(C)/C=N/S(=O)(=O)c1cccn1-c1ncc(C(F)(F)F)cc1Cl	5	3	·	-8	-10	-5	-4	i
Cc1cc2nc(CS(=O)(=O)c3ccccc3)cc(=O)n2[nH]1	1	2	·	-10	-14	2	-10	i
Cc1c(NS(=O)(=O)c2cccc(C(=O)NCc3cccc(Cl)c3)c2)c(=O)n(-c2ccccc2)n1C	0	-3	-3	·	10	·	·	·
O=C(NCCCC1CCCC1)C1CCC(=O)N(Cc2cccc(C(F)(F)F)c2)C1 (configuration not stated)	3	-3	9	-8	-16	-8	6	i
COc1ccc(NC(=O)c2cc(C3CCCCN3C(=O)c3ccc4c(c3)CCO4)on2)c(C)c1 (configuration not stated)	-3	0	4	·	8	·	·	·
COc1cc2c(cc1OC)/C(=C/C(=O)c1ccc([N+](=O)[O-])c(C)c1)NCC2	-1	-3	-9	14	11	-8	·	i
COCCn1c(Cc2ccccc2)nnc1SCc1nc2ccccc2c(=O)[nH]1	0	4	-26	-8	·	-4	-5	i
O=C(CCC(=O)NNc1nc2ccccc2c2nc(-c3ccccc3)nn12)NCCCN1CCCC1=O	4	6	-4	-2	9	8	-10	i
Cc1nc(C)c(-c2ccc(SCC(=O)Nc3cccc(F)c3)nn2)s1	-7	-27	-7	-7	16	-5	5	i
CCOc1cc2c(cc1/C=C1/NC(=O)N(CC(=O)OC)C1=O)OCO2	3	2	·	-6	5	-7	·	i
CC(=O)N1CCC(=NNC(=O)c2cccs2)CC1	-2	2	1	4	·	5	-7	i
CC1CCN(C(=S)Nc2ccc(SC(F)F)cc2)CC1	1	-6	·	-2	-5	-2	-18	i
C=CCC1NS(=O)(=O)OCC1C(C)C (configuration not stated)	1	6	-22	-4	7	-8	16	i
O=C(Nc1ccncc1)C1c2ccccc2Oc2ccccc21	2	1	-1	-3	-17	0	-5	i
Cc1ccc(S(=O)(=O)CC(=O)N2CCCCCC2)cc1	-3	-1	·	-6	4	1	-3	i

Reprinted at random: 3 records from the list.
SMILES	MT1-MMP act inh	MT1-MMP act inh RFP	Yeast UUG start	PABP polyA inh	Env fusion inh	eIF4H FP inh	CSC inhib	Rce1 inh
COc1ccc(NC(=O)c2cc(C3CCCCN3C(=O)c3ccc4c(c3)CCO4)on2)c(C)c1 (configuration not stated)	-3	0	4	·	8	·	·	·
CC12CCC(C(=O)Nc3cc(F)ccc3F)(CC1=O)C2(C)C (configuration not stated)	-1	1	-17	4	-17	-4	-7	i
CC1CCN(C(=S)Nc2ccc(SC(F)F)cc2)CC1	1	-6	·	-2	-5	-2	-18	i

Compound activity from PubChem BioAssay.
